RanGTP-Imp inh = inhibitors of RanGTP-importin-beta interaction, primary screen, biochemical, FRET, CFP-Ran, YFP-importin-beta, homogeneous | cell-free CFP-Ran/YFP-importin-beta FRET ratio | inhibition, % (concentration not given with the values) | hit rate 1.1% among 300,000 | AID 2216, 2009;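 active means most replicates above 15%; inconclusive means exactly half above 15%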;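 further: 0% = DMSO wells and 100% = Ran loaded with GDP instead of GTP; wells of about 40 µL received 100 nL stock; the first replicate is given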
ALR H2O2 inh = inhibitors of human ALR sulfhydryl oxidase, primary screen, biochemical, H2O2 detection, HRP-luminol luminescence, single point; purified ALR, DTT oxidation; inhibition, % (no concentration beside the values); hit rate 3.8% among 290,000;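 active means mean and each replicate at 75% or more; inconclusive means only one of the two met; inactive means neither met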;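 further: stock transfer was 7.5 nL into about 7.5 µL; 0% = neutral wells and 100% = wells with inactivated enzyme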
Target sequence (P55789 whole entry, looked up): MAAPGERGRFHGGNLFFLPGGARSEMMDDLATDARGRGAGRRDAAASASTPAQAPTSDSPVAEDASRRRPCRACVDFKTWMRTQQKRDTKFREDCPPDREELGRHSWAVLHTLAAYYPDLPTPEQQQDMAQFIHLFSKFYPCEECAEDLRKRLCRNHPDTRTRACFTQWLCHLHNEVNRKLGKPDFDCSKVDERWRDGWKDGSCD
Calb FLC = C. albicans growth inhibition with fluconazole, primary screen, CaCi-2 strain, Alamar Blue fluorescence. C. albicans CaCi-2 (fluconazole-resistant clinical isolate) + fluconazole, 48 h. hit rate 0.57% among 300,000. growth inhibition, % (concentration not given with the values). AID 1979, 2009;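 active means most replicates above 75%; inconclusive means exactly half above 75%; inactive means most below 75%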;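 further: all wells also contain fluconazole at 8 µg/ml as a sub-toxic cotreatment; 0% = median of DMSO wells and 100% = median of geldanamycin control wells; wells of about 8 µL received 7.5 nL stock; the first replicate is given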
T cruzi inh = inhibitors of intracellular T. cruzi growth, primary screen, luminescence, NIH3T3 host cells; hit rate 1.4% among 300,000; T. cruzi beta-gal in NIH3T3, 90 h; AID 1885, 2009; inhibition, % (no concentration beside the values);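 active means mean inhibition across valid replicates above about 55%, limit read from the data; inconclusive means mean below that limit but half or more replicates reach it; inactive means mean below it, under half of replicates reach it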;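 further: signal also drops with host cell toxicity which is not excluded here; 0% = plate median of DMSO wells and 100% = zero luminescence signal; higher percent means less beta-gal luminescence so fewer parasites; stock transfer was 50 nL into about 50 µL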
Beta apoptosis = inhibitors of cytokine-induced beta cell apoptosis, primary screen, luminescence | INS-1E cytokine-induced death, ATP luminescence, 48 h; percent of positive-control rescue, neutral wells zero | protection from apoptosis, % (test concentration not listed) | hit rate 0.8% among 300,000 | AID 435005, 2010;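 active means all replicates at 75% or more, or half of them and the mean; inconclusive means half reach 75% but not the mean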;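 further: 0% = cytokine-treated negative control wells and 100% = positive control rescue; higher means more ATP so stronger rescue from cytokine killing; wells of about 40 µL received 100 nL stock; the first replicate is given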
FGF22 binding = binders of human FGF22 protein, primary screen, FGF22 synaptogenesis inhibitor project, biophysical, thermal shift, single point; Fibroblast growth factor 22 (Homo sapiens), Q9HCT0; recombinant FGF22 thermal shift, SYPRO orange fluorescence; percent of sucrose octasulfate shift, DMSO zero; AID 651658, 2012; hit rate 1.5% among 340,000; calls only at 9.99 µM;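 active means melting point raised past a set limit in the mean and every replicate; inconclusive means no clear call; three in four hits are not shown here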
Target sequence (Q9HCT0 whole entry, looked up): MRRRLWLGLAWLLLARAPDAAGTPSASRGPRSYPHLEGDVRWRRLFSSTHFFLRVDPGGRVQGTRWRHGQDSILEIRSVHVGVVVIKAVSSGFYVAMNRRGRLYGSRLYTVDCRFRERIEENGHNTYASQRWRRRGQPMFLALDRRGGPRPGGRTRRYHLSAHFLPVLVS
rRNA inh HTS = reduced GFP signal of wild-type E. coli, primary screen, bacterial rRNA inhibitor project, GFP/RFP fluorescence, OD600, single point; E. coli WT GFP vs humanized-ribosome RFP mutants, 24 h; stronger effect = lower value; DMSO median 0, no signal -100; GFP signal change (wild-type ribosome), % (concentration not given with the values); hit rate 1.6% among 350,000;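 active means significant combined selectivity score with lowered wild-type GFP, culture density cut under 30%, mutant RFP and density less affected; inactive means any of these conditions unmet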; further: one replicate is shown; some compounds called inactive have numbers as strong as hits
AF4-AF9 inh = inhibitors of AF4 peptide binding to AF9, primary screen, biochemical, AlphaScreen, biotin-AF4 peptide, FLAG-AF9, single point | hit rate 0.47% among 350,000 | Protein AF-9 (Homo sapiens), P42568 | AID 651704, 2012 | inhibition, % at 10 µM;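 active means every replicate reaching a set inhibition limit, whatever the replicate mean, cut at about 25% in these data; inconclusive means mean inhibition reaches that limit but some replicates miss it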;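 further: 0% = plate neutral control median and 100% = total signal loss; the record names both 10 and 1 µM as test concentration; the first replicate is given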
Target sequence (P42568 whole entry, looked up): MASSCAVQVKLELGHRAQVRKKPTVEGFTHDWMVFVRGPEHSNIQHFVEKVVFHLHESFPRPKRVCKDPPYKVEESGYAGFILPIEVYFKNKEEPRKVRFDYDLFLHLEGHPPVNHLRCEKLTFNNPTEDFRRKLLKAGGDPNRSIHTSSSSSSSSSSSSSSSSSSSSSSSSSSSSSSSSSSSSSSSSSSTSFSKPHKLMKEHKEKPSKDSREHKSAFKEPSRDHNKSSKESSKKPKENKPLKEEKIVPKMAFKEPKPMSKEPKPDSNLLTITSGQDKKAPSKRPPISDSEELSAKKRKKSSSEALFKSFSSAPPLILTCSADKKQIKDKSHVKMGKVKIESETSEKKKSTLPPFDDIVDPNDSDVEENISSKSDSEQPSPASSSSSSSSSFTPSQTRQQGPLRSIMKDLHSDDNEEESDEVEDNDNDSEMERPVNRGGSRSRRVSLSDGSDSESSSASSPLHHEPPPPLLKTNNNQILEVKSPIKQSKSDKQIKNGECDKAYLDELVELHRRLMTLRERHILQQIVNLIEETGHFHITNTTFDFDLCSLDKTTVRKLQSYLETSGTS
rRNA inh HTS OD600 = recorded beside rRNA inh HTS, whose call it bears; OD600 change, %; measured here: OD600 growth;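 optical density of the mix in the first replicate; 0 = DMSO median and -100 = no signal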
rRNA inh HTS RFP = recorded beside rRNA inh HTS, whose call it bears; RFP signal change, %; measured here: RFP humanized mutant strains;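 first replicate; 0 = DMSO median and -100 = no signal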
* marks the source's active call; other numbers are inactive results; i = inactive; ? = inconclusive; nt = no result given. These rows are one share of the data; count on the stated rates, not on these rows.

Each structure is followed by: RanGTP-Imp inh	ALR H2O2 inh	Calb FLC	T cruzi inh	Beta apoptosis	FGF22 binding	rRNA inh HTS	rRNA inh HTS OD600	rRNA inh HTS RFP	AF4-AF9 inh
> O=C(NC1CCCC1)c1ccc(CSc2nc3ccncc3n2Cc2ccc(F)cc2)cc1
  ?	98.9*	5.3	0.2	3.2	i	-3.9	5.5	31.1	2.0
> COc1cccc2sc(Nc3nc(C)c(C(C)=O)s3)nc12
  11.9	32.7	-0.4	89.1*	41.9	nt	nt	nt	nt	nt
> N#CC(c1ccccc1)N(CCCCl)C(=O)c1ccc(Br)cc1 (stereo not given)
  5.4	-5.2	24.7	-11.2	-4.5	i	-29.1	-30.0	-4.1	-2.3
> C=CCn1c(SCC(=O)c2c(N)n(C)c(=O)n(C)c2=O)nnc1-c1ccccc1F
  2.2	-4.0	-17.5	0.0	nt	nt	17.0	11.0	4.0	-1.4
> CCOC(=O)c1ccccc1N/C=C1\CCCCC1=O
  ?	2.3	5.4	2.9	-2.2	i	2.1	4.5	-3.3	1.7
> Cc1nc2ccccc2c2oc(C(=O)Nc3ccc4c(c3)OCCO4)cc12
  4.5	-13.3	-4.9	17.0	25.1	i	3.1	-0.9	-2.6	0.7
> O=C(c1cccc(N2C(=O)C3C4C=CC(C4)C3C2=O)c1)N1CCN(c2ccccc2F)CC1 (stereo not given)
  5.4	-0.1	-5.8	-0.2	1.0	i	-8.3	-13.1	-1.0	-1.3
> COc1ccc(-c2noc3c2-c2nc(-c4cccc(C)c4)sc2CC3)cc1
  4.4	-0.1	8.0	-10.7	8.0	i	3.0	0.9	4.4	-12.4
> CC1CCCN(S(=O)(=O)c2ccc3c(c2)CCN3C(=O)C2CCC2)C1 (stereo not given)
  5.9	3.6	2.2	8.4	4.0	nt	nt	nt	nt	nt
> CCOc1ccc(C2NC(=S)NC3=C2CCc2ccccc23)cc1 (stereo not given)
  -1.0	-21.1	7.1	-11.5	-0.8	i	nt	nt	nt	0.8
> COCCN(C(=O)COC(=O)c1ccccc1Cc1ccccc1)c1c(N)n(Cc2ccccc2)c(=O)[nH]c1=O
  9.4	0.0	15.4	-5.8	0.2	i	-17.6	-23.4	0.7	0.3
> Cc1ccc(Cn2nc(C)cc2C(=O)Nc2ccccc2Cl)cc1
  0.7	nt	2.2	0.6	nt	i	-15.9	-22.5	0.8	-0.9
> CNC(=S)N(CCc1c(C)[nH]c2ccc(F)cc12)Cc1cccnc1
  0.6	96.7*	nt	4.0	-1.1	i	1.8	-1.1	0.8	5.4
> O=C(CSc1nnc(-c2ccccc2)o1)NC1CC1
  -2.8	-1.4	nt	-2.5	-1.7	i	13.1	14.7	-1.3	8.2
> N#CCCn1nc(-c2ccccc2)cc1-n1c(C(F)(F)F)nc2ccccc21
  -1.8	-1.4	-2.7	16.7	-2.7	nt	nt	nt	nt	nt
> O=C(CNS(=O)(=O)c1ccc(Br)s1)NCC1COc2ccccc2O1 (stereo not given)
  3.9	-24.8	88.0*	-9.0	-5.2	nt	nt	nt	nt	nt
> COCCNS(=O)(=O)c1ccc(Cl)c(C(=O)NC2CCN(Cc3ccccc3)CC2)c1
  -0.4	-0.2	-0.3	-3.9	-2.0	i	4.0	6.6	-2.0	0.7
> Cc1cc(=O)oc2c3c(cc(OCC(=O)NC4CC4)c12)OC(C)(C)CC3
  -3.6	-5.7	-5.8	17.4	1.7	i	nt	nt	nt	-0.1
> COc1cccc(C2=NOC(C(=O)NC(C)C)C2)c1 (stereo not given)
  3.4	2.4	1.2	-11.4	-5.7	nt	nt	nt	nt	nt
> CC(Sc1n[nH]c(N)n1)C(=O)Nc1ccccc1-c1ccccc1 (stereo not given)
  2.2	1.4	-2.9	-1.0	0.9	i	22.2	11.6	-0.5	-1.2
> COc1ccc(NC(=O)c2ccc(S(=O)(=O)N3CCCCC3)cc2)c(OC)c1
  1.6	-8.8	6.3	-23.8	-4.1	i	nt	nt	nt	2.9
> FC(F)(F)c1nc2nncn2c2c1CCCCC2
  -1.5	-0.7	1.4	-11.8	-2.5	nt	nt	nt	nt	nt
> CC(=O)N(CN1C(=O)c2ccccc2C1=O)c1ccccc1
  -0.1	-11.6	0.6	1.5	-0.6	nt	nt	nt	nt	nt
> CCOCC(=O)Nc1ccc(S(=O)(=O)NCC2CCCO2)cc1 (stereo not given)
  5.5	-16.2	1.6	2.0	1.4	i	-5.3	7.4	-0.6	-2.0
> O=C(O)c1cscn1
  7.7	nt	-4.2	-21.0	-2.4	nt	nt	nt	nt	nt
> C[C@@]12C(=O)N(c3cccc(F)c3)C(=O)N1[C@H](c1ccc(Cl)cc1)[C@@H]1C(=O)N(C3CCCCC3)C(=O)[C@@H]12
  ?	3.3	4.6	0.2	1.5	i	7.2	-0.7	5.5	4.5
> OC1(c2ccccc2Cl)NN=C2CCCCCN21 (stereo not given)
  -3.4	-11.2	-7.7	-1.1	-12.9	i	6.2	0.9	-1.9	-5.2
> Cc1ccc(S(=O)(=O)/N=c2\scc(C)n2C)cc1
  -4.3	-4.0	5.5	7.0	-1.1	i	9.5	14.9	-6.9	-0.8
> COc1ccc(OC)c2sc(N3CCCCC3)nc12
  ?	29.3	1.9	-2.3	2.1	nt	nt	nt	nt	nt
> O=c1oc(-c2ccccc2)cc(Cl)c1Cl
  -4.5	53.4	-6.0	49.9	-17.7	i	-11.0	-1.5	2.3	0.4
> CN(Cc1ccc(F)cc1)C(=O)c1cccc(S(=O)(=O)NCc2ccccc2)c1
  1.4	-0.1	10.9	-0.1	nt	i	-9.8	-17.2	1.4	-2.3
> CCC(=O)Nc1nc2ccccc2n1CCN(C)C
  -2.4	-2.3	5.7	10.5	-6.7	nt	nt	nt	nt	nt
> CN(Cc1cccc(F)c1)C(=O)CN1C(=O)NC2(CCc3ccccc32)C1=O (stereo not given)
  nt	1.4	nt	nt	-1.4	i	0.3	12.3	-0.2	-2.6
> Cc1cc(N(C)NC(=S)Nc2ccccc2)nc(C)n1
  4.4	13.1	-5.3	10.2	-8.9	i	-4.7	3.8	16.2	-4.2
> COc1cc(/C=N\NC(=O)C2C(=O)NCC2c2ccccc2)cc(OC)c1O (stereo not given)
  -2.9	53.2	-7.7	-4.6	-1.1	nt	nt	nt	nt	nt
> CC(C)CN(C(=O)CSc1nn(-c2ccc(Cl)cc2)c(=S)s1)C1CCS(=O)(=O)C1 (stereo not given)
  ?	nt	14.6	7.2	3.6	i	-4.8	-6.5	11.3	5.4
> Nc1ccc2nc(-c3ccccc3)c(-c3ccccc3)nc2c1
  -14.0	-12.6	-3.2	9.3	nt	i	-11.9	-23.6	-0.3	-21.6
> Cc1nn(-c2ccccc2)c(C)c1-c1cc(C(=O)N/N=C/c2ccc(O)cc2)[nH]n1
  -0.4	96.8*	-4.1	-4.2	24.1	i	-24.4*	-3.9*	-6.0*	6.2
> CC(C)(C)OC(=O)NCCCC[C@H](NC(=O)c1[nH]cnc1C(=O)N[C@@H](Cc1ccccc1)C(=O)OCc1ccccc1)C(=O)OC(C)(C)C
  nt	-3.1	nt	nt	-2.3	i	5.6	7.0	7.1	4.4
> COCCNC(=O)C(=O)NCC1OCCCN1S(=O)(=O)c1cccs1 (stereo not given)
  -0.1	-6.2	-5.6	-10.7	-3.3	nt	nt	nt	nt	nt
> CC1c2cc3c(cc2CCN1S(=O)(=O)c1ccccc1)OCCCO3 (stereo not given)
  6.4	1.7	-1.9	-3.9	-4.4	i	-0.3	-21.2	-1.8	0.3
> CCc1nnc2c(N(C)C)nc3ccccc3n12
  nt	-1.8	nt	-3.1	2.2	i	-24.6	-38.2	-8.4	-3.8
> CC1=C(C(=O)Nc2ccccn2)C(c2ccc(Br)cc2)NC(=S)N1 (stereo not given)
  0.0	nt	-4.2	-2.8	2.0	nt	nt	nt	nt	nt
> Cc1cc(C)c2cccc(N)c2n1
  4.2	-9.5	6.2	-6.2	17.3	i	-22.8*	-17.1*	0.8*	-2.8
> Cc1ccc(NC(=O)C2CC(=O)n3c(nc4ccccc43)N2)cc1C (stereo not given)
  -3.3	2.2	11.1	2.0	0.3	i	7.0	1.6	-5.7	-13.0
> O=C(NCCCN1CCCC1=O)c1ccc(S(=O)(=O)Nc2cccc(C(F)(F)F)c2)cc1
  1.2	0.6	15.1	-8.7	-3.8	i	-0.1	-9.8	-2.7	-4.2
> CC(C)N(C(=O)N1CCN(c2ccnc3cc(Cl)ccc23)CC1)C(C)C
  -4.4	nt	20.3	6.5	nt	i	-36.0	-60.7	-0.2	1.8
> COc1cc(NC(=O)CCCNC(=O)c2ccc(Cl)cc2)cc(OC)c1
  1.2	6.5	-7.6	6.3	1.4	i	-0.5	-1.8	0.7	-0.8
> CC(C)NC(=O)c1ccccc1-c1nc(-c2ccccc2Cl)no1
  1.3	-3.1	10.6	6.1	-1.0	nt	nt	nt	nt	nt
> CCOC(=O)c1ccc(NC(=O)CSc2nc3c(c(=O)n2C)SC(C)C3)cc1 (stereo not given)
  -2.5	99.6*	1.8	10.9	9.7	i	-30.4	-47.8	9.6	-3.7
> O=C1c2ccccc2C(=O)N1c1ccc(Cc2ccncc2)cc1
  3.1	-4.5	5.8	-8.8	-3.6	i	-2.1	-6.0	-4.5	1.9

High-throughput results from PubChem BioAssay.
